# High-throughput results as filed in PubChem.
# MT1-MMP promoter: inhibitors of MT1-MMP promoter transcription, cell-based, luciferase reporter, luminescence (AID 618); MT1-MMP promoter luciferase reporter cells, luminescence; calls from a first round at 10 µM; hits with a dose series show EC50 in µM; actives 0.62% (n = 87,000);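 active means over half of the reporter light lost at 10 µM or EC50 under 50 µM; inactive means the rest and hits that failed the dose series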;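 further: actives suppress MT1-MMP promoter-driven transcription so potencies describe inhibitors; HT1080 fibrosarcoma cells; overnight exposure; toxic or luciferase-blocking compounds were not removed from the actives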
# WNV protease inh: blocks West Nile virus NS2B-NS3 protease activity; AID 577; actives 0.18% (n = 65,000); z-score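 (tested at a level between 10 and 100 µM)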; P06935; WNV NS2B-NS3 protease, fluorogenic substrate Ex360/Em465; hits give low values;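 active means z-score at -3 or under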;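 further: score is relative to mean and spread of the compound wells of a plate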
# Target sequence (P06935 1371-1501 limits assumed): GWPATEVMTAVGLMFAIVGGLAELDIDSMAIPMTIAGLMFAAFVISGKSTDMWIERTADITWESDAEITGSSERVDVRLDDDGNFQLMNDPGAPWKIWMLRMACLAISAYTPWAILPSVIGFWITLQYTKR
# Target sequence (P06935 1502-1679 limits assumed): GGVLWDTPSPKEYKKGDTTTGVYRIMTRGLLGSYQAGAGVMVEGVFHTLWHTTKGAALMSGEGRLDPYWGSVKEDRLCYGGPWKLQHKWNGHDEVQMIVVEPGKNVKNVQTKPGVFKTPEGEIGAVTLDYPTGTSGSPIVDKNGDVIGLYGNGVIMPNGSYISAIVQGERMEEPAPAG
# Hsc70: small molecules displacing fluorescent ligand from Hsc70 – biochemical, fluorescence polarization, primary screen (AID 568). Hsc70 fluorescence polarization, probe displacement; higher % means a stronger effect; strong numbers were not always called active. displacement, % at 20 µM; hits with a dose series show IC50 in µM. 83,000 tested, under 10 active;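 active means displacement above 50% without optical interference and an IC50 on retest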;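 further: ATPase domain with a fluorescein-tagged ATP probe; 0% = vehicle and 100% = excess ADP; read after one hour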
# * marks the source's active call; other numbers are inactive results; i = inactive; . = no result given.
No.	Structure	Hsc70	MT1-MMP promoter	WNV protease inh
1	Cn1c(CN2CCCC2)nc2cc(NC(=O)COc3ccc(Cl)cc3)ccc21	5.4%	i	-0.26
2	COC(=O)c1ccc(-n2nnnc2SC)cc1	3.6%	i	.
3	CCOC(=O)c1c(-c2ccsc2)csc1N	-3.7%	i	0.04
4	CC(C)OCCCN1C(=O)c2ccccc2C1C(=O)NC1CCCCC1 (stereo unspecified)	-2.1%	i	2.2
5	O=C(O)c1cccc(N2C(=O)CSC2c2c(F)cccc2Cl)c1 (stereo unspecified)	8.7%	i	-0.73
6	CCCC(=O)OCC(=O)Nc1cc(C(C)(C)C)nn1-c1ccccc1	2.3%	i	0.84
7	COc1ccccc1-n1c(=O)oc2ccc(Cl)cc2c1=O	5.0%	i	-0.41
8	O=C(Cn1cccc1)N1CCN(C(c2ccccc2)c2ccccc2)CC1	2.8%	i	0.32
9	COc1ccc(C(=O)N2CCC(C(=O)Nc3ccc4c(c3)OCCO4)CC2)cc1	2.6%	i	.
10	CCOc1cccc2cc(-c3nnc(NCc4ccco4)s3)c(=O)oc12	-0.3%	i	-0.43
11	CCCC[n+]1ccn(-c2nc3ccccc3nc2[N-]S(=O)(=O)c2ccccc2)c1	5.3%	i	.
12	Cc1nc2ccccc2n1CC(O)Cn1c2ccccc2c2ccccc21 (stereo unspecified)	-0.6%	i	.
13	NC(=O)c1ccsc1NC(=O)c1ccc(S(=O)(=O)N2CCCCC2)cc1	-2.9%	i	0.12
14	O=C(Cn1nnc(-c2cccc(C(F)(F)F)c2)n1)NC1CCCC1	5.8%	i	0.35
15	O=C(CC(SCCO)c1ccc(F)cc1)c1ccco1 (stereo unspecified)	-8.8%	i	0.47
16	Cc1cccc(NC(=O)CNc2cc(C)ccc2C)c1	0.9%	i	-0.1
17	Cc1nnc(-c2ccccc2)c[n+]1[O-]	-4.4%	i	0.1
18	COc1cc(-c2nnc(-c3ccc(S(=O)(=O)c4ccccc4)cc3)o2)cc(OC)c1OC	-2.4%	i	-0.67
19	Cc1cccc(N=C(N2CCOCC2)P(=O)(N2CCOCC2)N2CCOCC2)c1	2.1%	i	0.17
20	Cc1cc(C)n2nc(C(=O)Nc3ccc(S(=O)(=O)N4CCCCC4)cc3)nc2n1	-1.2%	i	.

# Next section:
No.	Structure	Hsc70	MT1-MMP promoter	WNV protease inh
21	O=C(Nc1c(Cl)cccc1Cl)C1CCC1	2.9%	i	3.5
22	CC(C)(C)NS(=O)(=O)c1ccc2nc(NC(=O)Cc3cccs3)sc2c1	-1.1%	i	0.84
23	CCN1CCN(CCNC(=O)c2ccc(CS(=O)(=O)c3ccccc3C)o2)CC1	-1.5%	i	0.02
24	O=C(NCc1ccc(F)cc1)C1CCN(S(=O)(=O)N2CCC3(CC2)OCCO3)CC1	-5.6%	i	2.4
25	Cc1nc(SCC(=O)N2CCc3ccccc32)n[nH]1	1.8%	i	.
26	CSC1=N/C(=C\c2ccccc2F)C(=O)S1	-1.7%	i	2.7
27	COc1nc(NCCN2CCOCC2)nc(Nc2ccc([N+](=O)[O-])cc2)n1	2.2%	i	.
28	CC1CCCCN1C(=O)CN1C(=O)CN(C)C(=O)c2ccccc21 (stereo unspecified)	4.3%	i	0.45
29	CC1=C(C(=O)Nc2ccc(Br)cc2)C(c2ccco2)NC(=O)N1 (stereo unspecified)	2.0%	i	.
30	CCC(C)(C)n1nnnc1C(C(C)C)N(CCN1CCOCC1)Cc1cc2cccc(C)c2[nH]c1=O (stereo unspecified)	2.5%	i	.
31	COc1cc(C(=O)Nc2sc3c(c2C(=O)NCc2ccco2)CCCC3)cc(OC)c1OC	7.0%	i	.
32	CC12CCC(C(=O)NCCCn3ccnc3)(OC1=O)C2(C)C (stereo unspecified)	1.3%	i	0.3
33	COCCNc1ncnc2c1cnn2-c1ccc(Cl)cc1	67%	i	1.3
34	COc1ccc(CCNC(=O)c2cc3ccccn3n2)c(OC)c1OC	1.0%	i	0.57
35	COc1ccc(C)cc1S(=O)(=O)N1CCC(C(=O)NCCC2=CCCCC2)CC1	3.2%	i	.
36	COC(=O)C1CCN(S(C)(=O)=O)CC1	-3.4%	i	-1.3
37	O=C(CCC1CCCCC1)NCc1cccs1	-6.1%	i	.
38	Cc1ccc(OCC(O)CN2CCN(CC(O)COC(C)C)CC2)c(C(C)(C)C)c1 (stereo unspecified)	4.4%	i	-0.09
39	CNC(=O)/C(C#N)=c1\s/c(=C/C(=O)OC)c(=O)n1-c1ccccc1	-6.4%	i	.
40	O=C(C1CCC(C(=O)N2CCCC2)CC1)N1CCCC1 (stereo unspecified)	1.4%	i	0.36

# The list continues:
No.	Structure	Hsc70	MT1-MMP promoter	WNV protease inh
41	CCn1cc(C(=O)N=c2sc3ccccc3n2C)c(=O)c2ccc(C)nc21	-1.8%	i	-0.13
42	Cc1ccc(SCCNC(=O)C(CO)(CO)CO)cc1	-0.7%	i	2.2
43	CCOc1ccc2nc(N3CCCN(C(=O)Nc4ccccc4C)CC3)c(C#N)cc2c1	22%	i	-2
44	O=C(CSc1ncnc2c1oc1ccccc12)c1cccs1	-5.6%	i	1
45	Cc1ccc(Nc2ncnc3c2oc2ccccc23)cc1	5.5%	i	.
46	COc1cc(OC)cc(C(=O)NCCSCc2ccco2)c1	6.8%	i	0.66
47	O=C(COC(=O)CSc1nnc(-c2ccc(Cl)cc2)o1)NCc1ccc2c(c1)OCO2	-4.0%	i	0.84
48	Cc1cc(C#N)c(C)c(SCc2[nH]nc3c2C(c2ccccc2)C(C#N)=C(N)O3)n1 (stereo unspecified)	-1.2%	i	.
49	Cc1cccc(N2CC(C)Cn3c2nc2c3c(=O)n(CC(=O)OCc3ccccc3)c(=O)n2C)c1 (stereo unspecified)	1.8%	i	-0.58
50	CCS(=O)(=O)c1ccc2oc(SCC(=O)NCCC3=CCCCC3)nc2c1	3.9%	i	-0.5
51	N=c1nc(SCCC(=O)O)ss1	-8.0%	i	-0.1
52	CSCCC(NC(=O)C1CCC(C)CC1)C(=O)NCCN1CCOCC1 (stereo unspecified)	-6.4%	i	-0.14
53	CCCOc1ccc(N2C(=O)CC(SC(=NC)Nc3ccc(F)cc3)C2=O)cc1 (stereo unspecified)	1.4%	i	.
54	O=S(=O)(Nc1ccc(N2CCCCC2)cc1)c1cccc2cccnc12	-4.9%	i	-0.79
55	O=C(N/N=C/c1cccc([N+](=O)[O-])c1)c1ccc2nc[nH]c2c1	-2.2%	i	.
56	CNc1csc(C)c(C)c1=O	-1.2%	i	1.5
57	CC1(C)CC(=O)C=C(Nc2ccc(S(N)(=O)=O)cc2)C1	2.9%	i	0.63
58	COc1ccc(C2(C(=O)Nc3ccc(C(=O)N4CCOCC4)cc3)CCOCC2)cc1	-0.8%	i	0.28
59	O=C(O)C1CSC2(c3ccc4c(c3)OCCO4)CCC(=O)N12 (stereo unspecified)	3.6%	i	-0.96
60	CN(CC(=O)NCCc1ccccc1)S(=O)(=O)c1cccs1	0.2%	i	0.42

# Later entries.
No.	Structure	Hsc70	MT1-MMP promoter	WNV protease inh
61	CCOc1ccc(C=O)cc1CN1CCCCC1	1.6%	i	.
62	C/C(Cl)=C\Cn1c(NCCCn2ccnc2)nc2c1c(=O)n(C)c(=O)n2C	-2.7%	i	0.12
63	CC(C)CNc1nc2c(c(=O)n(C)c(=O)n2C)n1Cc1cccc(Br)c1	-5.9%	i	-1.1
64	Oc1ccc(-c2cn3c(n2)SCC3)cc1O	6.0%	i	.
65	Cc1cc(NS(=O)(=O)c2ccc(NC(=O)NC(C)(C(F)(F)F)C(F)(F)F)cc2)no1	1.6%	i	.
66	CCc1nnc(NC(=O)CSc2nnc(Cc3cccn3C)n2CCOC)s1	-4.1%	i	1.2
67	CC1CCCCC1NC(=O)C1CCN(S(=O)(=O)N2CCC3(CC2)OCCO3)CC1 (stereo unspecified)	8.7%	i	0.21
68	CN(C)CCN1C(=O)C(O)=C(C(=O)c2cc3ccccc3o2)C1c1ccc(N(C)C)cc1 (stereo unspecified)	-11%	i	-0.23
69	CC(=O)C1=C(O)C(=O)N(C2CCCCC2)C1c1ccccc1 (stereo unspecified)	2.9%	i	-0.82
70	CCOC(=O)N1CCC2(CC1)C(C(=O)C13CC4CC(CC(C4)C1)C3)C2(C#N)C#N (stereo unspecified)	5.1%	i	-0.31
71	CC1=C(C(=O)Nc2ccccc2)C(c2ccccc2)N2C(=O)CSC2=N1 (stereo unspecified)	0.4%	i	0.32
72	CC(C)Cn1c(CN(C)Cc2ccccc2)nc2c1c(=O)n(C)c(=O)n2C	6.9%	i	1.6
73	COc1ccccc1NC(=O)CC(=O)CSc1nnc(-c2ccc(C)cc2)n1C	-1.8%	i	-0.43
74	COc1cc(OC)c(OC)cc1CN1CCCC(C(=O)N2CCCCC2)C1 (stereo unspecified)	0.8%	i	0.6
75	O=C(O)CCc1ccc(-c2ccc(F)cc2)n1CC1CCCO1 (stereo unspecified)	-1.7%	i	.
76	Cc1ccc(Cn2ccc(NC(=O)c3cc4nc(-c5ccco5)cc(C(F)(F)F)n4n3)n2)cc1	-8.8%	i	.
77	CCOc1cc(-c2cc(-c3ccccc3)nc(N)c2C#N)ccc1O	-1.1%	i	.
78	COc1ccc(NC(=O)CSc2nnc(-c3ccccn3)n2N)cc1	3.4%	i	-0.63
79	COc1ccc(NC(=O)CSc2nc3c(c(=O)[nH]2)CCC3)cc1OC	1.2%	i	-0.32
80	CC([NH2+][O-])C(C)(C)NO (stereo unspecified)	1.1%	i	.

# The list goes on:
No.	Structure	Hsc70	MT1-MMP promoter	WNV protease inh
81	CC(=O)c1cccc(NC(=O)c2ccc(NS(C)(=O)=O)cc2)c1	10%	i	0.79
82	Clc1ccc(CSc2ncn(-c3ccccc3)n2)cc1	1.7%	i	.
83	COc1ccccc1CNC(=O)C1CCN(S(C)(=O)=O)CC1	-1.3%	i	-0.49
84	COC(=O)CCCCC1SCC(NC(=O)OC)C1NC(=O)OC (stereo unspecified)	-2.8%	i	-0.58
85	CN(C)c1ccc(C(=O)n2nnc3ccccc32)cc1	3.7%	i	.
86	CCc1ccc(-c2nc(CN3CCCC(C(=O)NCCc4ccc(OC)c(OC)c4)C3)c(C)o2)cc1 (stereo unspecified)	-1.5%	i	-1.3
87	CC(NC(=O)C1CCCN(C(=O)N(C)C)C1)c1ccccc1 (stereo unspecified)	2.7%	i	.
88	CCCCNC(=O)C1c2cc(OC)c(OC)cc2C(=O)N(C)C1c1ccc(OC)cc1 (stereo unspecified)	3.1%	i	0.9
89	Cc1cc(C)nc(Sc2nc(C)nc3c2oc2ccccc23)n1	1.2%	i	0.56
90	CN(C)c1nc(OCC(=O)NC(C)(C)C)nc(N(C)C)n1	5.0%	i	-0.84
91	COc1cccc(C(=O)N(Cc2ccco2)Cc2cc3cccc(C)c3[nH]c2=O)c1	-0.1%	i	-0.58
92	Cc1cccc(NC(=O)C2CCCN(C(=O)Nc3ccccc3)C2)c1C (stereo unspecified)	-1.9%	i	0.96
93	CC(=O)NCC(=O)N(c1ccccc1)C1(C(=O)NC2CCCCC2)CCCCC1	-6.1%	i	-0.49
94	CCOC(=O)CNC(=O)c1cnn2cccnc12	0.7%	i	-0.00091
95	Cc1cc(OCC(=O)NCc2nc(-c3ccccc3)no2)c(C)cc1Br	8.1%	i	-1.3
96	CN(C(=O)c1ccc2c(=O)n3c(nc2c1)CCCCC3)c1ccccc1	-3.7%	i	-2
97	COc1ccccc1-n1c(SCC(=O)N2CCCCC2)nnc1-c1ccccc1O	-2.1%	i	-1.2
98	O=C(O)CCCC(=O)NCCCCc1ccccc1	5.8%	i	-1.1
99	CCC(C)(C)NC(=O)C(c1cccn1C)N(C(=O)Cn1nnc2ccccc21)c1ccc(F)cc1 (stereo unspecified)	-0.7%	i	0.89
100	COC(=O)CSc1nc(C(C)C)nc2ccccc12	-0.4%	i	1.6

# One compound at a time (already shown):
# CCCCNC(=O)C1c2cc(OC)c(OC)cc2C(=O)N(C)C1c1ccc(OC)cc1 (stereo unspecified) as listed: Hsc70: 3.1%; MT1-MMP promoter: i; WNV protease inh: 0.9
# COc1cccc(C(=O)N(Cc2ccco2)Cc2cc3cccc(C)c3[nH]c2=O)c1 as listed: Hsc70: -0.1%; MT1-MMP promoter: i; WNV protease inh: -0.58

# Part of the list above, limited to MT1-MMP promoter:
no.	SMILES	MT1-MMP promoter
94	CCOC(=O)CNC(=O)c1cnn2cccnc12	i
81	CC(=O)c1cccc(NC(=O)c2ccc(NS(C)(=O)=O)cc2)c1	i
96	CN(C(=O)c1ccc2c(=O)n3c(nc2c1)CCCCC3)c1ccccc1	i

# Structures above that have a nitro group on carbon, in the order listed:
No.	Structure	Hsc70	MT1-MMP promoter	WNV protease inh
27	COc1nc(NCCN2CCOCC2)nc(Nc2ccc([N+](=O)[O-])cc2)n1	2.2%	i	.
55	O=C(N/N=C/c1cccc([N+](=O)[O-])c1)c1ccc2nc[nH]c2c1	-2.2%	i	.

# Next section:
No.	Structure	Hsc70	MT1-MMP promoter	WNV protease inh
101	O=C(Cn1c(-c2ccc(Cl)cc2)noc1=O)N1CCN(c2ccccc2F)CC1	-4.4%	i	1.2
102	COC(=O)CCSc1nccn1Cc1ccccc1	-6.7%	i	-1.2
103	COc1ccc(-c2noc(-c3ccccc3Cl)n2)cc1OC	3.8%	i	-0.29
104	O=C(Nc1ccc2c(c1)OCCO2)c1cnc2ccccn2c1=O	2.8%	i	-0.93
105	O=C1CC(c2ccccc2)n2nc(NS(=O)(=O)c3ccccc3)nc2N1 (stereo unspecified)	1.7%	i	-0.21
106	COc1cccc(Cn2nnc3c(=O)[nH]c(C4CCCN(C(=O)c5ccccc5Cl)C4)nc32)c1 (stereo unspecified)	-4.6%	i	-0.2
